PINK1 modulator: A Quantitative High throughput Screen to Identify Chemical Modulators of PINK1 Expression; Potency, µM (series often up to 76.6 µM), for inactives: top-dose activation (PINK1 increase), most hits filed as activators; 0.2% of 410,000 active; PINK1 immunofluorescence, high-content cytometry, 24 h; active = well fitted activation curve with a large enough effect; inconclusive = small, poorly fitted or top-dose-only effect; inactive = flat fitted curve, though single readings scatter; cell line not stated here;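 also: potency is read from the fitted curve at half-maximal effect; % of control where 0% means no effect; nearly all actives have a fitted effect of over 65% in size; a mitochondrial uncoupler was the plate control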
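Stable cell line treated 24 h with compounds at 5 concentrations (CCCP controls), then fixed and immunostained for PINK1 plus nuclear and cell stains; PINK1 immunofluorescence quantified by laser-scanning microplate cytometry.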
CtBP-E1A blk: qHTS Assay for Inhibitors of the CtBP/E1A Interaction; AlphaScreen GST-E1A/His-CtBP binding, 1536-well; active compounds read low; control for the full effect not named in the record; activity change, % (concentration not given with the values); 0.49% of 340,000 active; in the data active means activity change below about -65%; inconclusive means about -30% to -65%; inactive means above about -30%; also: % is scaled to controls: 0 for no effect and ±100 for the full control effect
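In 5 uL wells, 23 nL compound meets equimolar GST-E1A and His-CtBP (5X stock 125 nM each) for 2 h, 37 °C. Beads (5X, 50 ug/mL) then 1 h, 37 °C, dark.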
TRPML1 agonist: qHTS for Agonists of the Human Mucolipin Transient Receptor Potential 1 (TRPML1) | TRPML1-expressing cells, Ca2+ dye fluorescence, FDSS; host cell line not named in the record; reference of the full effect not given here | activation, % (no concentration beside the values) | 0.12% of 410,000 active; in the data active = activation above about 50%; inconclusive = about 30% to 50%; inactive = below about 30%; also: 0% is about no effect; the text of the record puts the active cut at 80%
Target sequence (Q9GZU1 whole entry, looked up): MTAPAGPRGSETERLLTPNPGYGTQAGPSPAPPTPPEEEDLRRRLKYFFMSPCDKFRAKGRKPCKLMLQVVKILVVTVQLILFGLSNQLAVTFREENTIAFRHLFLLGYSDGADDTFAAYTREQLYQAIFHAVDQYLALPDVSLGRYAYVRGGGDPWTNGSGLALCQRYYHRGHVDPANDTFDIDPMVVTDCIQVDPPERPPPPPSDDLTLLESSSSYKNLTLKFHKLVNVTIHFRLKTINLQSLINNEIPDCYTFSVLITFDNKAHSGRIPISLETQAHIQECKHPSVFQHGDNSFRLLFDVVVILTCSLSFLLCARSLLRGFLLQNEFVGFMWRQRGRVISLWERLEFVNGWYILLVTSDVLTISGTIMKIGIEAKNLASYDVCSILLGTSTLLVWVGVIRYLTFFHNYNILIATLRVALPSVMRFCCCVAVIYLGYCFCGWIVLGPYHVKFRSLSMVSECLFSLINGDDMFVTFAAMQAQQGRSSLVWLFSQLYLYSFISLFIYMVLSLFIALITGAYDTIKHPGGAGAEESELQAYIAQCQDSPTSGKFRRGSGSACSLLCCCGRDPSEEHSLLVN
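Agonist activity was taken from a 110 s kinetic Ca2+ dye read on the FDSS after pinning compounds onto TRPML1-DL cells. The cells were seeded at 1,500/well with Tet inducer, incubated about 16 h, then dye-loaded at room temperature.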
D2 PAM: Beta-Arrestin HTS for Positive Allosteric Modulators of the Human D2 Dopamine Receptor: Potentiators | AID 624464, 2012 | DiscoveRx D2 beta-arrestin cells, luminescence, 90 min; 100% = 57 uM dopamine signal | D(2) dopamine receptor (Homo sapiens), P14416 | 0.23% of 360,000 active | potentiation, % (no concentration beside the values); active = potentiation of 50% or more; inconclusive = 30% to 50%; inactive = 30% or less;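 also: compound concentration not given in the record; tested on top of an EC20 dose of dopamine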
Target sequence (P14416 whole entry, looked up): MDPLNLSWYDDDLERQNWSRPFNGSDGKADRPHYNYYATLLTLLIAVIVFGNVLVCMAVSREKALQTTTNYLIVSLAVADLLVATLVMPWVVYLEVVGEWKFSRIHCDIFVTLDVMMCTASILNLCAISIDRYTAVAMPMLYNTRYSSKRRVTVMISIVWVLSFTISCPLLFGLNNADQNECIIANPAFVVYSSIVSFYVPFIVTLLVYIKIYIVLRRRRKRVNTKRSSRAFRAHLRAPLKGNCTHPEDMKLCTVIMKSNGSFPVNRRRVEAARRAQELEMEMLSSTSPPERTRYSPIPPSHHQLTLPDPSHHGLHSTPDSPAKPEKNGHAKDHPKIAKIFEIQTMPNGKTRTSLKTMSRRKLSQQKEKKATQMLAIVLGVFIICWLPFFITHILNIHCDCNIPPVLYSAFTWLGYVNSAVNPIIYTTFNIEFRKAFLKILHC
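PathHunter beta-arrestin assay in DiscoveRx D2 cells. Compounds were added with an EC20 of dopamine (50 nM final) for 90 min at 37 deg C. Luminescence was read 1 h after detection reagent, with 57 uM dopamine as the EC100 control.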
D2 agonist: Beta-Arrestin HTS for Positive Allosteric Modulators of the Human D2 Dopamine Receptor: Agonists | D(2) dopamine receptor (Homo sapiens), P14416 | AID 624465, 2012 | 0.084% of 360,000 active | DiscoveRx PathHunter D2 beta-arrestin, luminescence, 90 min; 100% = 57 uM dopamine signal | activation, % (no concentration beside the values); in the data active = activation above about 40%; inconclusive = about 15% to 40%; inactive = below about 15%; also: compound concentration not given in the record; the text of the record calls up to 30% inactive
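DiscoveRx PathHunter D2 beta-arrestin cells (2,100/well) attached overnight, then compound-stimulated 90 min at 37 C in HBSS/10 mM HEPES/0.1% Tween-20 buffer; beta-galactosidase complementation read by luminescence after 1 h at ambient temperature. Dopamine 57 uM final (EC100) as control.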
Six1-Eya2 inh: qHTS Assay for Inhibitors of the Six1/Eya2 Interaction; Homeobox protein SIX1 (Homo sapiens) + Protein phosphatase EYA2 (Homo sapiens), …; AlphaScreen GST-Six1/His-Eya2 binding, biochemical; active compounds read low; control for the full effect not named in the record; activity change, % (no concentration beside the values); 0.56% of 360,000 active; in the data active = activity change below about -65%; inconclusive = about -30% to -65%; inactive = above about -30%; also: % is scaled to controls: 0 for no effect and ±100 for the full control effect
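Homogeneous AlphaScreen proximity assay pairing GST-Six1 with His-tagged Eya2 (added as 5X mix: 250 nM and 500 nM) in 50 mM Tris pH 8.0, 300 mM NaCl, 1 mM TCEP. Glutathione donor and nickel acceptor beads; 1 h, 37 °C, dark.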
Numbers without * were called inactive; ? = inconclusive; nt = not tested or not shown; & = joins results of further samples; [ ] = remark or other dose.

SMILES	PINK1 modulator	CtBP-E1A blk	TRPML1 agonist	D2 PAM	D2 agonist	Six1-Eya2 inh
COC(=O)c1ccc(CSc2nc3c(c(=O)[nH]2)CCC3)cc1	1.5%&0.5%	-1	1.7&2.5	-4	-1.9	8
Clc1ccccc1C1Nc2cccc3cccc(c23)N1	-0.7%	nt	-0.7	13	1.0	-1
Cc1nc(N2CCOCC2)[nH]c(=O)c1C	3.3%	5	0.7	-3	2.8	12
O=C(O)CCC(=O)NNc1ncnc2ccccc12	0.6%	4	-0.8	0	-0.4	6
Cc1ccc(C(=O)N/C(=C\c2ccco2)C(=O)N2CCCCC2)cc1	0.9%	-2	-0.1	-2	-3.4	4
O=C(CN1C(=O)NC2(CCc3ccccc3C2)C1=O)Nc1ccc(Cl)cc1F (stereo not drawn)	12%	4	0.9	-12	-1.6	3
COc1ccc(CCC(=O)OCc2csc(CC(=O)Nc3ccc(C)cc3)n2)cc1OC	1.0%	1	2.5	-17	-4.0	-19
CC1CN(S(=O)(=O)c2cc(C(=O)NCCCN3CCCC3=O)ccc2Cl)CC(C)O1 (stereo not drawn)	0.2%	-11	0.4	-12	3.7	9
O=c1[nH]c(CN2CCN(S(=O)(=O)c3cccs3)CC2)nc2c(Br)cc(Br)cc12	-0.6%	8	-0.2	-5	-1.2	-9
CCCCNc1c(-c2ccc(F)cc2)nc2nc(C)cc(C)n12	-0.3%	-24	-1.3	nt	nt	-2
O=C1CCCC2=C1C1(CCCC1)N=C(Nc1nc3ccccc3s1)N2	11µM*	-10	-0.1	-11	1.8	2
CSc1ccccc1OCc1cc(C(=O)NCCN2CCCC(O)C2)no1 (stereo not drawn)	1.1%	-11	0.8	-21	1.4	-3
COC(=O)c1cc(C(=O)NCc2ccc3c(c2)OCO3)cc([N+](=O)[O-])c1	-1.1%	-5	-0.9	-3	-1.7	-7
Cc1ccc(-n2c(Cc3cccn3C)nnc2SCC(=O)NCc2ccc3c(c2)OCO3)cc1	-1.5%[38.3 µM]	-21	3.6	-4	-0.3	-20
CCOc1ccc(OCCC(=O)N(CCOC)c2c(N)n(Cc3ccccc3)c(=O)[nH]c2=O)cc1	-1.5%	1	0.2	5	-0.7	-1
COc1ccc(C(=O)C2CCCN(C(=O)c3csc(SC)n3)C2)cc1F (stereo not drawn)	3.3%	13	0.7	-5	2.4	-3
COc1cc(C(=O)NC2Cc3ccccc3C2)ccc1OC1CCN(C(C)=O)CC1	1.0%	6	0.6	-2	-2.9	4
COc1ccccc1Cc1c(-c2ccc(OC)c(OC)c2)nc2cc(C)c(Br)c(C)n12	0.7%	0	-0.3	nt	nt	-10
C=C1CC2C(=O)N(Cc3ccccc3)C(C(=O)OCC)(C(=O)OCC)C1N2C(=O)OC(C)(C)C (stereo not drawn)	2.9%	2	0.3&0.7	-1	5.2	-4
O=C(NCCCn1ccnc1)c1csc2ccccc12	-2.5%[38.3 µM]	-7	0.3	-11	-1.9	3
CC(C)N1CCN(Cc2cccn2-c2ccccn2)CC1CCO (stereo not drawn)	1.0%	3	1.6	-2	0.6	0
Cc1cc(N2CCN(C(=O)c3ccco3)CC2)n2nc(C)nc2n1	0.4%	-3	0.1	-1	1.6	-11
Cc1ccccc1NC(=O)c1cc(S(=O)(=O)N2CCOCC2)ccc1F	?	-3	2.4	7	-1.0	0
CCn1c(Cc2ccccc2)nnc1SCC(=O)Nc1nc(C)cs1	-1.6%	-3	-0.9	-5	0.1	-1
CCOC(=O)C1CCN(c2cc(=O)n(-c3ccc(OC)cc3)c(=O)[nH]2)CC1	-0.4%	1	-0.7	-2	-1.3	2

One compound at a time, as listed above. Values in the order: PINK1 modulator, CtBP-E1A blk, TRPML1 agonist, D2 PAM, D2 agonist, Six1-Eya2 inh
Listed for CCCCNc1c(-c2ccc(F)cc2)nc2nc(C)cc(C)n12 → -0.3%, -24, -1.3, nt, nt, -2
Listed for CCOc1ccc(OCCC(=O)N(CCOC)c2c(N)n(Cc3ccccc3)c(=O)[nH]c2=O)cc1 → -1.5%, 1, 0.2, 5, -0.7, -1
Listed for CSc1ccccc1OCc1cc(C(=O)NCCN2CCCC(O)C2)no1 (stereo not drawn) → 1.1%, -11, 0.8, -21, 1.4, -3
Listed for Cc1ccc(-n2c(Cc3cccn3C)nnc2SCC(=O)NCc2ccc3c(c2)OCO3)cc1 → -1.5%[38.3 µM], -21, 3.6, -4, -0.3, -20
Listed for Cc1ccccc1NC(=O)c1cc(S(=O)(=O)N2CCOCC2)ccc1F → ?, -3, 2.4, 7, -1.0, 0

Records listed above marked active in PINK1 modulator.
| SMILES | PINK1 modulator | CtBP-E1A blk | D2 PAM | D2 agonist | Six1-Eya2 inh |
| --- | --- | --- | --- | --- | --- |
| O=C1CCCC2=C1C1(CCCC1)N=C(Nc1nc3ccccc3s1)N2 | 11µM* | -10 | -11 | 1.8 | 2 |

The list continues:
SMILES	PINK1 modulator	CtBP-E1A blk	TRPML1 agonist	D2 PAM	D2 agonist	Six1-Eya2 inh
COc1cc2c(cc1OC)C(c1ccccc1)N(C(=O)c1ccco1)CC2 (stereo not drawn)	2.8%	-1	1.1	-2	2.5	-17
CC1Cn2c(nc3c2c(=O)[nH]c(=O)n3C)O1 (stereo not drawn)	0.4%	2	-0.1	-6	-2.6	-2
O=C(CCC1CCCC1)N=C1SC2CS(=O)(=O)CC2N1c1ccccc1F (stereo not drawn)	1.6%	nt	0.2	-12	-2.1	4
COc1cccc(NC(=O)c2ccccc2N(Cc2ccccc2)S(C)(=O)=O)c1	0.0%	nt	-0.3	4	1.7	-3
CN(C)c1ccc(/C=N/NC(=O)c2nnn(-c3nonc3N)c2CN(C)c2ccccc2)cc1	2.7%	0	-0.2	-15	8.9	1
Cc1cc(C)c(NC(=O)CSc2nc(=O)n3cc(C)ccc3n2)c(C)c1	2.7%	-4	0.2	-8	5.1	5
COc1cccc(/C=N/NC(=O)CCNc2n[nH]c(=O)[nH]c2=O)c1OC	2.2%	3	-0.1	-17	0.8	8
Cc1nnc2ccc(-c3ccc(NS(C)(=O)=O)cc3)nn12	-0.1%	7	0.0	1	3.2	0
Clc1ccc(Cl)c2sc(N3CCCC3)nc12	1.2%	14	0.4	20	-3.5	32
N#CCSc1ncnc2c1cnn2CCO	2.5%	5	-0.2	-1	0.1	14
NC(N)=Nc1nc2cc([N+](=O)[O-])ccc2o1	-1.2%	5	3.1	-9	2.0	-10
COC(=O)c1ccc(/C=N/NC(=O)CC(=O)NCC(C)C)cc1	2.6%	-5	1.4	-13	-2.3	3
CCCn1c(N2CCN(C(=O)/C=C/C(=O)O)CC2)nc2ccccc21	2.3%	5	0.1	-4	2.8	8
CCc1cccc(NC(=O)CCCn2c(=O)[nH]c3ccsc3c2=O)c1	-0.4%	-14	-0.7	-3	4.4	-4
CN(CCO)S(=O)(=O)c1ccc2c(c1)C(=NN)c1cc(S(=O)(=O)N(C)CCO)ccc1-2	5.8%	-9	0.1	-5	-1.8	-1
Cc1[nH]c2ccccc2c1C(=O)CSC(=S)N(C)C1CCCCC1	6.9%	7	0.5	-19	-5.1	8
Cc1ccc(S(=O)(=O)Nc2ccc(N3CCOCC3)cc2)cc1	4.6%[38.3 µM]	4	-0.2	-9	-2.5	0
CCCCCn1c(=O)c(C(=O)OCC)c(O)c2ccccc21	0.7%	-1	0.7	15	-2.2	-2
CSc1ccc(/C=C/C(=O)OCC(=O)N2CCCCCC2)cc1	-0.4%	-29	-0.7	-3	-1.5	-11
Cc1cccc(NC(=O)C[n+]2ccccc2)c1	-0.1%	-1	-0.1	-6	3.8	12
NC(=O)c1nsc(C(=O)N(c2ccc(F)cc2)C(C(=O)NCC2CCCO2)c2c[nH]c3ccccc23)c1N (stereo not drawn)	2.2%	0	-0.4	-8	-0.1	11
CCCCCCCCNC(=O)C(CCC(=O)OCc1ccccc1)NC(C)=O (stereo not drawn)	2.4%[38.3 µM]	8	-0.6	-9	-2.9	1
Nc1cc(=O)[nH]c(SCC(=O)c2ccc(O)cc2O)n1	0.1%	5	-0.6	-2	1.5	-7
Cc1cccc(S(=O)(=O)Nc2ccc3c(c2)OCCO3)c1	0.6%	nt	0.9	-7	1.5	3
C/C(N)=C(/C#N)C(=O)CSc1nc2cc(Cl)ccc2c(=O)n1-c1ccc(C)cc1	2.8%	1	-0.6	1	-7.0	0
The results go on:
SMILES	PINK1 modulator	CtBP-E1A blk	TRPML1 agonist	D2 PAM	D2 agonist	Six1-Eya2 inh
COc1ccc(OC)c(N(CC(=O)NCc2cccnc2)S(C)(=O)=O)c1	1.8%	-4	-0.5	-5	-4.2	-9
CCOc1ccc(Nc2nc3ccccc3n3nnnc23)cc1	17%	5	-0.8	10	11	-2
COc1cccc(NC(=O)NNC(=O)CCc2ccc(O)c(O)c2)c1	1.9%	-1	-0.1	-24	?	8
CCn1c(SCC(=O)Nc2c(C)n(C)n(-c3ccccc3)c2=O)nnc1-c1cccc(C)c1	-0.6%	3	0.3	-6	-0.1	4
Cc1ccc(C(=O)N(CCc2ccccc2)Cc2ccccc2)cc1S(=O)(=O)N1CCOCC1	3.8%	nt	2.5	-3	-4.2	2
COCCn1c(SCC(=O)Nc2ccc3c(c2)OCCO3)nc2c(c1=O)SC(C)C2 (stereo not drawn)	-1.3%	-12	1.0	-2	1.2	0
CCC(=O)N1CCC1(C)C(=O)Nc1ccc(C)c(C)c1 (stereo not drawn)	0.0%	4	-0.6	-3	-3.8	-3
Oc1ccc(C(=S)N2CCN(Cc3ccccc3)CC2)cc1	-0.1%	nt	0.6	-18	-2.3	-10
O=C(COC(=O)c1ccccc1Oc1ccccc1)NCc1ccco1	-0.3%	-2	1.2	0	-2.1	-14
CC1Cn2c(nnc2-c2ccc(F)cc2)S1 (stereo not drawn)	-0.4%	-12	0.8	-4	-2.7	11
Cc1ccc(-c2csc3ncnc(-n4nc(C)cc4N)c23)cc1	-2.6%	4	0.6	-12	-2.7	4
CC(=O)N1c2ccc(S(=O)(=O)NCCC(=O)N(C)C3CCCCC3)cc2CC1C (stereo not drawn)	-2.4%	3	0.5	-1	-7.0	0
O=C(CCN1C(=O)C2CC=CCC2C1=O)OCC(=O)c1ccc(F)cc1 (stereo not drawn)	-0.8%	nt	-1.4	9	-0.5	0
CCC(C)(C)C1CCC(=NNc2nc3ccccc3[nH]2)CC1 (stereo not drawn)	0.3%	-12	-0.2	-7	-2.5	-7
c1ccc2c(c1)CCN(C1CCCCC1)C2	0.0%	-6	1.0	-1	-1.8	5
O=C(Nc1ccc(N2CCOCC2)cc1)c1cccc(S(=O)(=O)N2CCCC2)c1	-0.2%[38.3 µM]	-3	0.0	24	4.5	-3
Cc1ccc([C@H]2C[C@H](O)[C@@H](n3cc(C4CC4)nn3)CN2Cc2cccs2)cc1	-1.0%	-6	1.2	0	-10	-3
COC(=O)c1sccc1NC(=O)CC1C(=O)NCCN1C(=O)Nc1cc(Cl)ccc1OC (stereo not drawn)	9.2%	-3	-0.7	-3	-4.8	-16
O=C(O)c1ccccc1N1C(=O)c2cccc3cccc(c23)C1=O	-1.8%	8	0.3	-2	2.9	3
